From PubChem
Vaccinia Venus – inhibitors of vaccinia virus (Venus reporter). Vaccinia virus Venus reporter expression, fluorescence. Potency, µM (top dose mostly 36.5 µM), for the others: top-dose activity change, negative = inhibition, most hits filed as inhibitors. actives 0.46% (n = 330,000). AID 720580; active means well fitted inhibition curve with a large enough effect; inconclusive means small, poorly fitted or top-dose-only effect; inactive means no such curve, though single readings can be large or run the other way; tested in A549 cells; further: nearly all actives have a fitted effect of over 30% in size; inactives centre near -10
Vaccinia mCherry – vaccinia inhibition (mCherry reporter) | AID 720579 | Vaccinia virus mCherry reporter infection, fluorescence; about a quarter of the inactives have no number | Potency, µM (top dose mostly 36.5 µM), inactives show at the top dose activity change, negative = inhibition, hits mostly inhibitors | actives 0.63% (n = 310,000); active = well fitted inhibition curve with a large enough effect; inconclusive = small, poorly fitted or top-dose-only effect; inactive = no such curve, though single readings can be large or run the other way; tested in A549 cells; further: nearly all actives have a fitted effect of over 35% in size; inactives centre near -10
* marks the source's active call; other numbers are inactive results; i = inactive; ? = inconclusive; · = not tested or not shown; & = joins results of further samples; [ ] = another dose, or the depositor's remark. On the % scale 0 is the no-effect control and ±100 the full control effect; potency means the concentration at half of the fitted maximal effect.

SMILES	Vaccinia Venus	Vaccinia mCherry
O=C(O)CN1C(=O)C2C3CC(C2C1=O)C1C(c2ccccc2)c2sc(=O)[nH]c2SC31 (configuration not stated)	-4.7%	-6.5%
CCOC(=O)c1c(NC(=O)CSc2nnnn2-c2ccccc2OCC)sc2c1CC(C)(C)NC2(C)C	-29.2%	?
Cc1ccnc2nc(C(=O)Nc3cc(Cl)ccc3N3CCOCC3)nn12	-15.5%	·
O=C(CCCOc1ccc(Cl)cc1Cl)N1CCc2ccccc2C1	-4.3%	-10.9%
CC(NC(=O)COC(=O)[C@@H]1CCCN1S(=O)(=O)c1ccccc1F)C12CC3CC(CC(C3)C1)C2 (some centres not stated)	-10.4%	-11.2%
Cc1cc2c(cc1S(=O)(=O)N1CCC(C(N)=O)CC1)OCC(=O)N2	-2.5%	-5.6%
CC(=O)OC1CCC2(C)C(CCC3C2CC(=O)C2(C)C3CC(C3CCCC3=O)C2C(C)=O)C1 (configuration not stated)	-18.0%	i
OC1CCN(Cc2ccc3c(c2)CN(C/C=C/c2ccco2)CCO3)CC1	-1.5%	-1.4%
O=C(NCC1CCCO1)c1ccc(NS(=O)(=O)c2ccccc2)cc1 (configuration not stated)	-11.3%	i
Cc1ccc(NC(=O)c2ccc(N(Cc3ccccc3)S(C)(=O)=O)cc2)cc1	-18.5%	-15.0%

Nothing new here: an excerpt of the list.
SMILES	Vaccinia Venus	Vaccinia mCherry
OC1CCN(Cc2ccc3c(c2)CN(C/C=C/c2ccco2)CCO3)CC1	-1.5%	-1.4%
O=C(NCC1CCCO1)c1ccc(NS(=O)(=O)c2ccccc2)cc1 (configuration not stated)	-11.3%	i
Cc1ccc(NC(=O)c2ccc(N(Cc3ccccc3)S(C)(=O)=O)cc2)cc1	-18.5%	-15.0%

More results follow.
SMILES	Vaccinia Venus	Vaccinia mCherry
CN(c1ccccc1)S(=O)(=O)c1cccc(NC(=O)CSc2nncn2C)c1	-6.6%	-14.2%
Cc1cccc(C)c1NC(=O)C1(NC(=O)C2CCC(=O)N2)CCCCC1 (configuration not stated)	-2.1%	-18.2%
N#Cc1cccc(NC(=O)CSc2ccc3c4c(cccc24)C(=O)c2ccccc2-3)c1	17.6%	-14.6%
CCN(CC)c1nc2cc(OC)ccc2cc1C#N	-26.7%	-21.0%
CN(C)c1ccc(/C=C2\NC(=O)NC2=O)cc1	-10.5%	-25.0%
Cc1ccc(CN2CCN(Cc3cnc(C)[nH]3)CC2CCO)cc1 (configuration not stated)	1.7%	-3.3%
CCCCCn1c(CCNC(=O)c2cccc(C)c2)nc2ccccc21	0.8%	-5.8%
Nc1ccc(-c2sc(N)nc2-c2ccccc2)cc1	-5.2%	?
Cc1ccc(N(Cc2ccc(C(=O)Nc3c(C)n(C)n(-c4ccccc4)c3=O)cc2)S(C)(=O)=O)cc1C	-5.8%	-26.7%
O=C(CC1NCCNC1=O)Nc1ccccc1 (configuration not stated)	-10.4%	-9.9%
COc1cc(OC)cc(C2=NC3(CCC(C)CC3)NC2=S)c1 (configuration not stated)	-9.9%	-15.1%
COc1ccccc1NS(=O)(=O)c1cc(NC(=O)c2ccc(Cl)nc2)ccc1Cl	?	-13.9%
CC(C)C(NS(=O)(=O)c1ccc2c(c1)oc(=O)n2C)C(=O)N1CCN(c2cccc(Cl)c2)CC1 (configuration not stated)	-2.8%	-21.0%
C=CCC(=O)NC1CC(C)(C)Cc2c1cnn2-c1ccccc1C (configuration not stated)	-5.0%	-15.0%
Cc1[nH]c(C)c(S(=O)(=O)NCc2ccc(OC(C)C)cc2)c1C(=O)N1CCCC1	-11.4%[7.34 µM]	-11.0%[7.34 µM]
Nc1ccc2ccccc2c1	-1.2%	i
CCn1c(=O)c2c3c(sc2n2cnnc12)CCC3	-18.7%	-13.3%[1.46 µM]
CCCCN(CCCNC(=O)c1cc(Nc2ccc(OC)cc2OC)nc2ccccc12)Cc1ccccc1	?	?
Nc1nc(N)c(S(=O)(=O)c2ccccc2)c(Nc2ccc(F)cc2)n1	2.3%	-1.7%
Cc1ccc(C(=O)N(Cc2cc3cc4c(cc3nc2N2CCOCC2)CCC4)CC2CCCO2)cc1 (configuration not stated)	-18.7%	i
COc1ccc(CCNC(=O)CN2CCN(Cc3ccc(F)cc3)C2=O)cc1OC	-7.7%	i
Cc1ccc(S(=O)(=O)NCC(=O)OCc2ccccc2Br)cc1	-14.8%	i
Cc1ccc(CCNC(=O)c2ccc(CS(=O)(=O)Cc3ccccc3F)o2)cc1	-15.4%	-18.8%
Cc1ccccc1NS(=O)(=O)c1nnc(NC(=O)c2ccc(Cl)cc2)s1	4.7%&0.8%	1.2%&-2.3%
Cc1noc(C)c1COc1ccccc1C(=O)NCc1ccccc1Cl	-9.0%	-2.1%
CS(=O)(=O)c1ccc2nc(NC(=O)C3CC(=O)N(c4ccccc4)C3)sc2c1 (configuration not stated)	-4.0%	-9.2%
CCOC(=O)CNC(=O)C1COc2ccccc2O1 (configuration not stated)	-13.9%	-15.0%
COc1ccc(NC(=S)N(CCc2c(C)[nH]c3ccccc23)Cc2ccco2)cc1	-14.1%	-3.5%
CC(C)N(C(=O)COC(=O)[C@@H]1CC(O)CN1S(=O)(=O)c1ccccc1[N+](=O)[O-])C(C)C (some centres not stated)	-1.9%	-11.6%
Cc1cc(NC(=O)Cn2ccsc2=N)c([N+](=O)[O-])cc1C	1.3%	-1.1%
CCCn1c(CNS(=O)(=O)c2ccc(C)cc2)nc2ccccc21	3.6%	i
CCc1ccc(N2C(=O)CC(N(CC3CCCO3)C(=O)/C=C/C(=O)O)C2=O)cc1 (configuration not stated)	-0.6%	i
Cc1cc(Cl)n2c(nc3ccccc32)c1C#N	-29.1%	?
O=C(C(Cc1ccccc1)n1cccc1)N1CCCCCC1 (configuration not stated)	-7.0%	i
O=C(OCC(=O)c1cccs1)c1ccc([N+](=O)[O-])o1	-17.3%	-28.9%
Cc1ccc(NC(=O)c2cnc(N3CCN(c4ccccn4)CC3)c3ccccc23)c(Br)c1	?	?
Cc1cc(Cl)c(S(=O)(=O)NC2CCCC2)cc1OCC(N)=O	-9.1%	i
COc1ccccc1C(=O)NCC(c1cccnc1)N(C)C (configuration not stated)	-7.7%	-11.1%
CCCCC(=O)Nc1nc(C)c(C(C)=O)s1	-11.3%	-9.5%
COCCN1C(=O)c2cc(C(=O)Nc3ccc(C)c(F)c3)ccc2C1Nc1ccc(C)c(F)c1 (configuration not stated)	-29.6%	i
CCCCc1nc(SCCN2CCOCC2)c2c(=O)n(C)c(=O)n(C)c2n1	-16.2%	-6.3%
COc1ccnc(Oc2ccccc2)c1C#N	-9.0%	-21.6%
CCc1ccccc1OCC(=O)OCC(=O)c1c(N)n(C)c(=O)n(C)c1=O	-5.1%	i
Nn1c(COc2ccccc2F)nnc1SCC(=O)NC1CCCC1	-13.8%	-5.7%
O=C(COC(=O)Cc1c(Cl)cccc1Cl)NCCC1=CCCCC1	-1.4%	-7.0%
COc1ccc(Cn2ccc3nc(C)c(C(=O)N4CCN(c5ccccc5)CC4)cc3c2=O)cc1	-3.1%	-2.9%
COc1ccc(-c2csc3ncnc(N4CCN(c5cccc(Cl)c5)CC4)c23)cc1	-23.4%	-1.6%
C=CC[C@H](CC(=O)N(CCO)Cc1ccccc1)C(=O)N[C@H](COC(=O)[C@@H](CC=C)CC(=O)OC(C)(C)C)Cc1c[nH]c2ccccc12	11.2µM*	?
COc1cc(C(=O)NNC(=O)c2ccc(NC(=O)C(C)(C)C)cc2)cc(OC)c1OC	-3.4%	-7.4%
C[C@H](CO)N1C[C@H](C)[C@@H](CN(C)C(=O)NC2CCCCC2)OCc2cnnn2CCCC1=O	-6.5%	-2.7%

(cont.)
SMILES	Vaccinia Venus	Vaccinia mCherry
O=C1CN(C(=O)COC(=O)CCc2ccccc2O)c2ccccc2N1	-11.0%	-17.2%
CCOc1ccc(S(=O)(=O)N2CCC(C(=O)Nc3ccccc3N3CCCC3)CC2)cc1	-29.0%	-1.8%
COc1ccc(-c2cc(C(=O)OCC(=O)Nc3ccc4c(c3)OCO4)c3ccccc3n2)cc1	-19.9%	-7.9%
CCN(CC)C(=O)C1CCCN(C(=O)CCn2nnnc2CN2CCOCC2)C1 (configuration not stated)	10.3%	-7.5%
C=CCOC(=O)C1=C(C)Nc2nnnn2C1c1ccc(OC)cc1OC (configuration not stated)	-19.7%	-23.4%
CCOC(=O)N1CCN(S(=O)(=O)c2ccc(OCC)c3ccccc23)CC1	?	?
Cc1ccc(C)c(Cn2c(=O)n(CCC(=O)NCc3ccc4c(c3)OCO4)c(=O)c3sccc32)c1	-17.3%	-24.8%
O=C(COC(=O)c1cccc(S(=O)(=O)N2CCN(c3ccccc3)CC2)c1)NCc1ccco1	-2.5%	·
O=C(CCN1C(=O)c2ccncc2C1=O)Nc1ccc(F)cc1	-12.4%	-18.0%
CCCC12CN3CC(CCC)(CN(C1)C3C(O)C(O)C(O)CO)C2=O (configuration not stated)	4.4%	0.6%
CCOc1ccccc1CNCC1CCCO1 (configuration not stated)	-16.3%	i
Cc1ccc(C)c(Cn2nnc3c(=O)[nH]c(C4CCN(C(=O)c5ccco5)CC4)nc32)c1	-13.7%	-28.8%
Cc1ccccc1CNC(=O)c1ccccc1SCC(=O)NCc1ccco1	3.0%	i
N#C/C(=C\c1cccs1)C(=O)c1ccccc1	1.6%	-2.0%
C/C(CC(=O)NCCN1CCOCC1)=N\NC(=O)c1ccncc1	-7.2%	-13.9%
Nc1ccc(S(=O)(=O)N2CCC(Cc3ccccc3)CC2)cc1	-15.1%	-25.8%
O=C(NC1CCN(C(=S)Nc2ccccc2)CC1)C1CCCCC1	19.1%	11.9%
O=C1CCCCCN1Sc1ccccc1	-9.3%	·
COc1ccc(C(=O)c2cn(Cc3cccc(C)c3)c3cc4c(cc3c2=O)OCCO4)cc1OC	-9.2%	-13.2%
COc1ccc(-c2nc(Cn3c(SCc4ccc(C)cc4)nc4ccncc43)c(C)o2)cc1OC	?	-18.7%

The closing 7 entries of the section before are carried over, then new ones follow.
SMILES	Vaccinia Venus	Vaccinia mCherry
N#C/C(=C\c1cccs1)C(=O)c1ccccc1	1.6%	-2.0%
C/C(CC(=O)NCCN1CCOCC1)=N\NC(=O)c1ccncc1	-7.2%	-13.9%
Nc1ccc(S(=O)(=O)N2CCC(Cc3ccccc3)CC2)cc1	-15.1%	-25.8%
O=C(NC1CCN(C(=S)Nc2ccccc2)CC1)C1CCCCC1	19.1%	11.9%
O=C1CCCCCN1Sc1ccccc1	-9.3%	·
COc1ccc(C(=O)c2cn(Cc3cccc(C)c3)c3cc4c(cc3c2=O)OCCO4)cc1OC	-9.2%	-13.2%
COc1ccc(-c2nc(Cn3c(SCc4ccc(C)cc4)nc4ccncc43)c(C)o2)cc1OC	?	-18.7%
CN(C(=O)COC(=O)c1cc(S(=O)(=O)N2CCCCC2)ccc1N1CCOCC1)C1CCS(=O)(=O)C1 (configuration not stated)	-7.7%[7.34 µM]	-6.4%[7.34 µM]
O=C(OCc1ccccc1)N1Cc2ccnnc2CC1c1ccccc1Br (configuration not stated)	-5.5%	i
O=C(Nc1nncs1)c1ccc(Br)c(S(=O)(=O)N2CCCC2)c1	-15.8%	-5.7%
CC(C)(C)Nc1c(C2CCNCC2)nc2c(OCc3ccccc3)cccn12	0.2%	i
CCn1c(SCC(=O)Nc2nc3ccccc3s2)nnc1-c1ccc(OC)cc1	-16.3%	·
COc1ccc2cc(C#N)c(NC(C)C)nc2c1	-7.3%	-17.2%
COc1ccccc1CCNC(=O)c1cccc(NC(=O)CC2SC(N3CCCCC3)=NC2=O)c1 (configuration not stated)	-9.0%	-17.9%
CC1CCCCC12NC(=O)N(CC(=O)NCc1ccccc1)C2=O (configuration not stated)	-12.1%	-17.7%
Cc1ccc(C(=O)Nc2ccc3c(c2)n(C)c(=O)c(=O)n3C)cc1	-0.7%	-14.8%
CCN(CC)S(=O)(=O)c1cc(NC(=O)C(C)N2CCN(c3ccccn3)CC2)ccc1C (configuration not stated)	-13.6%	-2.9%

The closing 2 records of the part above open the next one.
SMILES	Vaccinia Venus	Vaccinia mCherry
Cc1ccc(C(=O)Nc2ccc3c(c2)n(C)c(=O)c(=O)n3C)cc1	-0.7%	-14.8%
CCN(CC)S(=O)(=O)c1cc(NC(=O)C(C)N2CCN(c3ccccn3)CC2)ccc1C (configuration not stated)	-13.6%	-2.9%
Oc1ccc(/C=N/N2CCN(C3c4ccccc4-c4ccccc43)CC2)cc1	-2.4%	-14.5%
COc1ccc(-c2noc(CN(C)CCC3CCCCO3)n2)cc1 (configuration not stated)	-9.4%	-5.0%
CCNC(=O)C1(C)CCN(C(=O)c2ccc(OC)c(OC)c2)C1 (configuration not stated)	3.4%	21.3%
CCOC(=O)C1(Cc2cccc(OC)c2)CCN(CCO)CC1	-0.7%	-5.4%
Cc1onc(-c2c(F)cccc2Cl)c1C(N)=S	-6.6%	-2.0%
COc1ccc(N(C)S(=O)(=O)c2cccc(C(=O)NCC(c3ccco3)N3CCCC3)c2)cc1 (configuration not stated)	?	-11.4%
COc1cc(CCC(=O)Nc2ccc(C)c(S(=O)(=O)N(C)C)c2)cc(OC)c1OC	-23.6%	-16.9%
Cn1c(=O)cc(Cl)[nH]c1=O	-20.3%	?
CCOc1ccc(NC(=O)C(=S)NC2CCCCC2)cc1	11.0%	11.6%
COc1ccc(C)cc1NC(=O)Cn1c(=O)ccc2cc(S(=O)(=O)N3CCC(C)CC3)ccc21	-17.3%	-20.0%
CC(=C\c1ccccc1)/C=C1/SC(=S)N(CCCC(=O)O)C1=O	-5.4%	i
CCOC(=O)c1sc2nc(OCCN3CCOCC3)cc(C)c2c1N	-0.4%	-8.9%
